TexasRed fluor: Texas Red fluorescence interference in TRb-SRC2 counter-screen | TRb/SRC2 Texas Red total fluorescence interference | Potency, µM (top dose mostly 106 µM), inactives show at the highest dose fluorescence change, negative = quenching | 280,000 compounds, 0.29% hits | AID 1479; active = well fitted curve in either direction with a large enough effect; inconclusive = small, poorly fitted or top-dose-only effect; note: % is set by controls: 0 for no effect and ±100 for the full control effect
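Flags fluorescent or light-absorbing compounds by total fluorescence, S + 2P, at 555 nm excitation and 632 nm emission. Mixture: 20 nM Texas Red SRC2 peptide, 0.6 uM human TRb LBD, 1 uM T3, 5% DMSO; compound exposure 5 h at ambient temperature.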
RGS12 GoLoco inh: blocks human Gai1 binding to RGS12 GoLoco peptide, red readout. AID 880. 230,000 compounds, 0.44% hits. P63096. Gai1:RGS12 GoLoco peptide FP, rhodamine, 10 min. Potency, µM (highest dose often 61.6 µM), inactives show at the highest dose activity, negative = inhibition, usual class: inhibitors; active = well fitted inhibition curve with a large enough effect, not every such curve was filed as active; inactive = no such curve, though single readings can be large or run the other way; note: % is set by controls: 0 for no effect and ±100 for the full control effect; nearly all actives have a fitted effect of over 30% in size; many of its hits are not listed in these tables
Target sequence (P63096 whole entry, looked up): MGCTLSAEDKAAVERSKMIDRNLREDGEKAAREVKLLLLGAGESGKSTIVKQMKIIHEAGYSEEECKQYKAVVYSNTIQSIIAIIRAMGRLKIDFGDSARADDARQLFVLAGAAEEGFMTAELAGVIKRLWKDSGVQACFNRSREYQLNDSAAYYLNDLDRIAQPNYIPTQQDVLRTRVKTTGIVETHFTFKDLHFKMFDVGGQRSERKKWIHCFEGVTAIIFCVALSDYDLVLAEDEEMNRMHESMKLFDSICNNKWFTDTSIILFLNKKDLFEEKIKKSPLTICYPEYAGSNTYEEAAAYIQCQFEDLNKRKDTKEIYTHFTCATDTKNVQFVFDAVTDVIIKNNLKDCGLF
RECQ1 inh: blocks DNA unwinding by human RECQ1; P46063; RECQ1 DNA unwinding, red fluorescence kinetic read; Potency, µM (highest dose often 57.3 µM), for inactives: at the highest dose activity, negative = inhibition, actives largely listed as inhibitors; 240,000 compounds, 0.54% hits;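 note: plate controls were vehicle for no effect and no enzyme for full effect; nearly all actives have a fitted effect of over 30% in size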
Target sequence (P46063 whole entry, looked up): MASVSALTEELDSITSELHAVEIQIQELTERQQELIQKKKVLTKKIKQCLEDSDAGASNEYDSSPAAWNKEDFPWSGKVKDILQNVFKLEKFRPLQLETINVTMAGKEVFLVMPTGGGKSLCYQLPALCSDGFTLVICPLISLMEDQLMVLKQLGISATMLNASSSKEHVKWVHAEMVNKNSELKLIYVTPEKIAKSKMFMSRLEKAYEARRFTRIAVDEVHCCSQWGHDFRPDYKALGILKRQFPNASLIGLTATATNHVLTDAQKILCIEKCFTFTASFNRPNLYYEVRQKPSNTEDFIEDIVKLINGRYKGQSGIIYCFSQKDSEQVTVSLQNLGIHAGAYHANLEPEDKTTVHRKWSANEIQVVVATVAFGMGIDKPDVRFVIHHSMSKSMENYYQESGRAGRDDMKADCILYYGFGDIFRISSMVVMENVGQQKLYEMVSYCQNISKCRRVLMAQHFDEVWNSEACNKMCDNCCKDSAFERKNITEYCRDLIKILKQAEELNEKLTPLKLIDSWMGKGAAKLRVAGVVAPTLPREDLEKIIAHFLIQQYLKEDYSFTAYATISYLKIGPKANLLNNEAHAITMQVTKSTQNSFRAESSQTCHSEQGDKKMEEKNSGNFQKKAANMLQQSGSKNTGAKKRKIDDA
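50 nM RECQ1T1 preincubated 15 min with compound in Tris pH 8.0 buffer with MgCl2, DTT, Tween-20 and 2.5 ug/ml poly(dI-dC); started with 200 nM TAMRA/BHQ-2 forked duplex and 2 mM ATP. Unwinding read as fluorescence (525/598 nm), two reads 2 h apart.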
JMJD2E inh: inhibitors of human JMJD2E histone demethylase | B2RXH2 | JMJD2E catalytic domain, FDH-coupled NADH fluorescence (FDH is formaldehyde dehydrogenase) | Potency, µM (titrated, usually from 57.1 µM), inactives show at the highest dose activity change, negative = inhibition, usual class: inhibitors | 230,000 compounds, 1.6% hits; active = well fitted inhibition curve with a large enough effect, not every such curve was filed as active; inconclusive = small, poorly fitted or top-dose-only effect, or another doubt; inactive = no such curve, though single readings can be large or run the other way;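 note: 0% = wells with enzyme and -100% = buffer wells without enzyme; nearly all actives have a fitted effect of over 50% in size; many of its hits are not listed in these tables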
TRb-SRC2 inh: TRbeta-SRC2 interaction inhibition; P10828; TRbeta-SRC2 peptide binding, fluorescence polarization; receptor liganded with 1 µM T3; Potency, µM (titrated, usually from 106 µM), inactives show at the top dose activity change, negative = inhibition, most hits filed as inhibitors; 280,000 compounds, 0.065% hits; AID 1469;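 note: plate controls were bound peptide for no effect and peptide without receptor for full effect; nearly all actives have a fitted effect of over 50% in size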
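Read-out is fluorescence polarization (555 nm excitation, 632 nm emission) of a Texas Red SRC2 coactivator peptide; loss of signal reflects blocked binding to human TRb ligand-binding domain in the presence of 1 uM T3.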
LMNA splice mod: modulators of lamin A splicing. Potency, µM (titrated, usually from 46.1 µM), for the others: at the top dose ratio change, negative = inhibition, hits mostly inhibitors. 200,000 compounds, 0.01% hits. HeLa LMNA splicing GFP/RFP minigene ratio, 48 h; active = well fitted inhibition curve with a large enough effect in the signal ratio, with a control signal flat, not every such curve was filed as active; inconclusive = small, poorly fitted or top-dose-only effect, or effect the other way, or a change in a side signal; the % refers to the signal ratio; note: % is set by controls: 0 for no effect and ±100 for the full control effect
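Read-out is the ratio of GFP to DsRed2 object intensity, acquired by 488 nm laser-scanning cytometry on HeLa lamin A-EGFP minigene reporter cells. Compound incubation 48 hrs at 37 °C in Opti-MEM with 2% FBS; DMSO 0.5% final.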
SMN2 splice enh: enhancers of SMN2 splice variant expression; HEK293 SMN2-luciferase splicing reporter, luminescence, 30-36 h; Potency, µM (top dose mostly 46.1 µM), without a hit: at the top dose activity change, positive = activation, most hits filed as activators; 210,000 compounds, 2.8% hits; note: % of control where 0% means no effect; nearly all actives have a fitted effect of over 55% in size
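qHTS luciferase splicing reporter: luminescence rises when SMN2 exon 7 is included in transfected HEK293 cells. Compound exposure lasted 30-36 h at 37C, with 4.5 mM final sodium butyrate as control, followed by a ONE-Glo read.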
An asterisk follows results filed as active; i = inactive; u = inconclusive; x = no result given; & = joins results of further samples; [ ] = remark or other dose. Unless noted, calls come from the whole dose curve; as a rule, active = well fitted curve in the direction sought with a large enough effect; inconclusive = small, poorly fitted or top-dose-only effect, or another doubt; inactive = no such curve, though single readings can be large; an effect the other way counts as inactive or inconclusive. Potency is the fitted concentration of half-maximal effect.

SMILES	TexasRed fluor	RGS12 GoLoco inh	RECQ1 inh	JMJD2E inh	TRb-SRC2 inh	LMNA splice mod	SMN2 splice enh
COc1cc(N(C(=O)Cc2cccs2)C(C(=O)NC2CCCCC2)c2ccc(C)cc2)ccc1-n1cnnn1 (stereo not given)	-3%	3%	-4%	8%	-5%	-2%	14%
CCC(C)(C)n1nnnc1C(c1ccc(Cl)cc1)N1CCN(C)CC1 (stereo not given)	-3%	2%	-4%	-15%	-23%	-2%	17%
O=C(O)c1ccc(NC(CSCc2cccc(F)c2)C(=O)O)c([N+](=O)[O-])c1 (stereo not given)	3%	4%	8%	-2%	-16%	1%	0%
Cc1cccc(NC(=O)Cn2c(=O)oc3ccccc32)c1	0%	2%	-20%	1%	-8%	10%	-8%
CCCCCCn1c(N(CC)CC)nc2c1c(=O)[nH]c(=O)n2C	-3%	8%	1%	6%	-3%	u	-14%
N=c1n(CCO)c2ccccc2n1CCN1CCCCC1	0%	10%	-4%	-17%	-9%	x	5%
Cc1ccc(CN2CCNC(=O)C2CC(=O)N2CCN(c3ncccn3)CC2)o1 (stereo not given)	-2%	8%	i	-27%	3%	15%[46 µM]	-1%
Cn1c(CSc2ncccn2)nnc1SCC(=O)N1CCCc2ccccc21	-5%	-3%	-3%	2%	-1%	1%	-2%
COc1cccc(CNC(=O)CSc2ccc(-c3ccncc3)nn2)c1	-1%	10%	-18%	0%	-4%	x	-6%
CCC(CC)NC(=O)COC(=O)c1cc(SC)ccc1Cl	-2%	-9%	-14%	-26%	5%	-5%[46 µM]	11%
COc1cc(NC(=S)N2CCc3ccccc3C2)cc(OC)c1	1%	8%	4%	-5%	-5%	x	17%
CCN(CC)C(=O)NCc1c(C)cc(C)cc1C	-1%	2%	-1%	6%	4%	-6%[46 µM]	8%
COC(=O)c1ccc(NC(=S)NC2CCCCC2)cc1	-1%	3%	i	-2%	-6%	2%	-31%
Cc1ccc(S(=O)(=O)NC2c3cccc4cccc(c34)C2Sc2nncn2C)cc1 (stereo not given)	1%	34%[activator]	0%	-7%	0%	u	u
C=CCn1ncc(OC)c(Cl)c1=O	2%	-10%	-4%	6%	-2%	-3%	6%
CCCC(=O)N1CCN(S(=O)(=O)c2cc(Cl)ccc2OC)CC1	1%	9%	-10%	9%	-4%	0%	-7%
CCOC(=O)c1c(C)[nH]c(C)c1C(=O)CSc1nnc(N)s1	-3%	13%	i	5%	3%	14%[46 µM]	4%
COc1ccccc1CNC(=O)C(C)NS(=O)(=O)c1ccc(C)cc1 (stereo not given)	0%	7%	i	-6%	3%	1%	u
CCCNC(=O)c1nn2cc(Br)cnc2c1Br	-1%	4%	-10%	2%	2%	6%[46 µM]	15%
O=C(Oc1cccc(NC(=O)c2cccs2)c1)c1cccc(S(=O)(=O)N2CCCC2)c1	-15%	10%	-8%	u	6%	-8%	8%
C#CCCCc1nc2ccccc2c(=O)n1N	-2%	9%	-2%	1%	-3%	7%	2%
O=C(Nc1ccc(N2CCCCCC2)cc1)c1ccccc1Cl	-3%	-28%	i	-11%	4%	u	14µM*
COc1ccc(-c2noc(-c3ccccc3C(=O)N3CCOCC3)n2)cc1	-1%	4%	-9%	2%	-3%	0%	2%
COc1ccc(CN(C)CC(=O)NC(=O)NCc2ccccc2)c(OC)c1	0%	-2%	-5%	11%	4%	-5%	12%
CC1CCN(C(=O)CSc2nc(N)cc(N)n2)CC1	-5%	3%	i	2%	1%	-1%	-6%
SMILES	TexasRed fluor	RGS12 GoLoco inh	RECQ1 inh	JMJD2E inh	TRb-SRC2 inh	LMNA splice mod	SMN2 splice enh
Cc1nonc1NC(=O)CSc1nc2cc(Cl)ccc2c2c1CCCC2	-2%	-10%	-5%	3%	0%	2%	8%
CNC(=O)COC(=O)c1ccc(NS(=O)(=O)c2ccc3c(c2)OCCO3)cc1	0%	6%	i	-2%	-16%	-2%[46 µM]	-1%
O=C(COc1ccc(S(=O)(=O)NCc2ccccc2)cc1)NCC1CCCO1 (stereo not given)	-1%	-17%	15%	4%	-15%	9%	14%
COC(=O)[C@H](C)NC(=O)Nc1ccccc1C(F)(F)F	-5%	3%	-6%	2%	-1%	6%	7%
CCOC(=O)c1c(C)oc2c(F)c(F)c(F)c(F)c2c1=O	-4%	-4%	u	-27%	-7%	-2%	-99%[inhibitor]
CCN(CC)CCSC(=O)C(c1ccccc1)c1ccccc1	2%	-5%	-5%	x	-4%	x	x
Clc1ccc(/C=N/NC2=Nc3cccc4cccc2c34)cc1	3%	60%[activator]	-2%	8%	-3%	-18%	11µM*
CSCCC(NS(=O)(=O)c1cc(C(=O)O)ccc1Cl)C(=O)O (stereo not given)	3%	5%	0%	-1%	1%	8%[46 µM]	8%
O=C(CSc1nnc(NC(=O)C2CC2)s1)NCc1cccs1	-1%	-6%	-6%	-4%	5%	9%[9.22 µM]	0%
Cc1ccc(Cl)cc1N1CCN(C(=O)c2cc3c(=O)n(C)c4ccccc4c3n2C)CC1	0%	-3%	0%	4%	-10%	-2%	-33%[inhibitor]
CCC(=O)Nc1nc(N)n(-c2ccccc2)n1	-3%	6%	i	6%	0%	7%	-26%
Cc1cc(Cl)ccc1N(CC(=O)N=Nc1c(O)[nH]c2ccccc12)S(C)(=O)=O	-6%	7%	-9%	-6%	-9%	-18%	13%
O=C(O)CSc1nnc(Nc2ccccc2)n1-c1ccccc1	0%	-8%	-4%	1%	2%	12%[46 µM]	-4%
CCn1c(O)c(N=NC(=O)c2cccs2)c2ccccc21	-8%	12%	-12%	11%	-7%	-26%[46 µM]	1%
COC(=O)COc1ccc(S(=O)(=O)NCc2ccco2)cc1	-1%	6%	i	6%	-1%	5%	16%
O=C(/C=C/c1ccccc1Cl)Nc1cccc(O)c1	-2%	1%	-7%	0%	1%	12%[9.22 µM]	u
CC(C)NC(=O)C12CC3CC(C1)CC(n1cnc(Cl)n1)(C3)C2	-1%	9%	-13%	-1%	-4%	9%	-2%
C=CCOc1ccccc1CNn1nnnc1N	-4%	7%	-22%	-1%	-1%	-5%	14%
CN(C)CCNC(=O)CNC(=S)N(CCCN1CCOCC1)Cc1cccs1	-1%	-5%	i	7%	-3%	6%[46 µM]	0%
Cc1ccc(Nc2nnc(SCc3cc(=O)n4cc(C)ccc4n3)s2)cc1	-2%	-4%	-4%	0%	6%	5%	-25%
CCC(C)N1CC(O)=C(c2nc3ccccc3[nH]2)C1=N (stereo not given)	-2%	4%	i	10%	-1%	7%	-6%
C[C@@H](C(=O)NCc1ccccc1)[C@H]1C[C@]1(C)[C@H](NC(=O)OCc1ccccc1)c1ccccc1	-1%&-2%	0%&7%	-4%&-13%	12%&-1%	-6%&3%	u	-29%&-35%
CCCCCCCCOC1OC(CO)C(O)C(O)C1NC(C)=O (stereo not given)	1%	15%	1%	11%	0%	-8%[0.0737 µM]	9%
Nc1cccc(C(=O)Nc2ccc(N)cc2Cl)c1	-1%	-5%	i	-3%	-21%	13%	u
COCCn1c(COc2ccc(OC)cc2)nc2ccccc21	-1%	-4%	-4%	1%	-9%	-11%	17%
SMILES	TexasRed fluor	RGS12 GoLoco inh	RECQ1 inh	JMJD2E inh	TRb-SRC2 inh	LMNA splice mod	SMN2 splice enh
CC(=O)Nc1ccc(S(=O)(=O)n2cnc3ccccc32)cc1	1%	-2%	20%	1%	4%	1%	8%
O=C(CNC(=S)N(Cc1ccccc1)Cc1cccnc1)NCCN1CCOCC1	1%	5%	-10%	0%	1%	x	-21%
Cc1ccc(C)c(S(=O)(=O)NCc2ccc(C(=O)N3CCN(C)CC3)cc2)c1	-1%	0%	10%	9%	-17%	4%	-9%
Cc1cc(-c2ccccc2)nc(Cl)c1C#N	0%	7%	0%	-1%	1%	-6%	10%
CCOC(=O)c1cnc2ccc(Br)cc2c1NCCO	-6%	-5%	i	-1%	-8%	-1%	-6%
Cc1cccc(C2CC(c3ccc(F)cc3)Nc3nc(N)nn32)c1 (stereo not given)	1%	8%	-9%	3%	-2%	4%	8%
COc1ccc(C(NC(N)=O)c2ccccc2)cc1 (stereo not given)	3%	-22%	-2%	8%	3%	8%	-8%
O=C(CC(=O)N/N=C/c1cccs1)NCc1ccccc1	1%	7%	-2%	-9%	-7%	x	-10%
O=c1c(Cc2ccc(F)cc2)c(O)ccn1CCCn1ccnc1	-7%	-1%	i	-10%	-6%	x	-4%
COC(=O)c1cccc(NC(=O)C2C3CCC(C3)C2C(=O)O)c1 (stereo not given)	2%	-34%	0%	3%	-5%	0%	-8%
CCOC(=O)N1CCN(C(=O)CSc2nnc(-c3cc(OC)cc(OC)c3)o2)CC1	1%	0%	-5%	2%	0%	4%	u
COc1cccc(N2CC(C(=O)NC3CCCCC3)CC2=O)c1 (stereo not given)	-2%	-6%	-1%	-4%	-18%	-12%	2%
Cc1ccccc1NC(=O)C1CCCN1S(=O)(=O)c1ccc2c(c1)n(C)c(=O)c(=O)n2C (stereo not given)	-2%	10%	u	u	5%	1%	15%
Cc1cccc(Nc2nc(NCCCN3CCOCC3)nc(N)c2[N+](=O)[O-])c1	-4%	-2%	-1%	5%	0%	29%	-5%
COC(=O)c1nn(-c2nc(-c3cccc(OC)c3)cc(C(F)(F)F)n2)cc1[N+](=O)[O-]	-1%	21%	-20%	u	-4%	x	-35%[inhibitor]
Cc1ccc(C(=O)NC(NC(=O)c2ccc(C)cc2)C(Cl)Cl)cc1	3%	7%	0%	-5%	1%	3%	-50%[inhibitor]
CCCCC1(C(=O)OCC)CC(CSC(=N)N)OC1=O (stereo not given)	-3%	-2%	i	7%	-7%	5%[46 µM]	5%
O=C(Nc1ccccc1F)c1ccc(Br)o1	-3%&-1%	-9%[88.7 µM]	-3%[81.1 µM]	-14%	3%&5%	-15%	22%
O=C(Nc1ccccc1Cl)c1ccccc1Cl	-2%	0%	-6%	-3%	-12%	5%	-15%
Cc1cc(Nc2cccc(F)c2)nc(-c2ccccc2O)n1	-2%	0%	-3%	u	-2%	u	-15%
O=C(O)CCCN=C1CCCc2ccccc2N1	-2%	-5%	i	-2%	-1%	1%	-19%

A portion of the library (hit frequency here may not be typical).
